SmPrx2 inh: Schistosoma mansoni Prx2 inhibition | S. mansoni Prx2 activity coupled to TGR/GSH (TGR is thioredoxin glutathione reductase), NADPH fluorescence loss, qHTS; some inactives read as strong as hits | Potency, µM | 0.07% of 65,000 active | AID 448; active means full or partial inhibition curve with a strong effect at the top dose; inconclusive means weaker partial or single-point curve; inactive means no accepted curve; further: series up to 57 µM; many of its hits are not listed in these tables
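Activity is read as the drop in NADPH fluorescence (365/450 nm), recorded every 30 sec for 8 min after H2O2 addition. Prx2 is coupled to TGR-driven NADPH oxidation through glutathione, in phosphate buffer pH 7.4.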
LT uptake inh: anthrax lethal toxin internalization inhibition | Cells, anthrax lethal toxin internalization, FRET ratio (460/530) | Potency, µM (series often up to 40 µM), for the others: at the highest dose activity change, negative = inhibition, most hits filed as inhibitors | 0.67% of 70,000 active; active = well fitted falling ratio curve with the 530 nm signal flat; inconclusive = other ratio curves, or a change in one channel alone; inactive = flat curves in the ratio and both channels; the % refers to the ratio; further: on the % scale 0 is the no-effect control and ±100 the full control effect; nearly all actives have a fitted effect of over 50% in size; tested in ME-180 cells; beta-lactamase reporter
Numbers without * were called inactive; ? = inconclusive; / = not tested or not shown; & = joins results of further samples; [ ] = another dose, or the depositor's remark. Potency means the concentration at half of the fitted maximal effect. Not all compounds are listed, so the mix of outcomes need not match the whole.

SMILES	SmPrx2 inh	LT uptake inh
O=c1c(-c2ccccc2)nc2cnc(N3CCNCC3)nc2n1Cc1cccs1	>57	?
CCOC(=O)C1CCCN(c2nc(C)nc3c2oc2ccccc23)C1 (centres undefined)	>57	15.1%
COc1cc(CN2CCC(C(=O)NC3CCCC3)CC2)cc(OC)c1O	>57	?
NC(=O)CC1(CC(=O)O)CCCCC1	>57	?
Cn1c2c(c(=O)n(C)c1=O)C(NC(=O)c1ccco1)(C(F)(F)F)C(=O)N2 (centres undefined)	>57	2.7%
Cc1ccccc1-n1c(C)nc2ccccc21	/	-3.1%
COc1ccc(-c2noc(CSc3nc4ccccc4c(=O)n3-c3ccccc3)n2)cc1	>57	1.5%
O=C1CC2(CON=C2c2ccc(F)cc2)C(=O)N1c1ccc(F)cc1 (centres undefined)	>57	/
COc1ccc(-n2nc3cc(C)c(N)c(Br)c3n2)cc1	>57	-22.5%
O=C(Nc1ccc2snnc2c1)N1CCSCC1	/	-4.2%
COc1ccccc1N=c1oc2cc(O)ccc2cc1C(N)=O	>57	?
Oc1cc2c(cc1O)CN(C(=S)NCCc1ccc(Cl)cc1)CCC2	>57&>57	15.8µM*
COc1cccc(-c2nc(CS(=O)(=O)CC(=O)N3CCc4ccccc4C3)c(C)o2)c1	>57	-21.8%
CN(C)CC/C=C1\c2ccccc2Sc2ccc(Cl)cc21	>57&>57	?
CNC(=O)CN(c1cccc(Br)c1)S(C)(=O)=O	>57	1.7%
O=C(O)c1c2c(nc3ccc(S(=O)(=O)N4CCC(C(=O)N5CCCCC5)CC4)cc13)CCCC2	>57	-0.7%
CCOc1ccc(S(=O)(=O)NCc2ccco2)c2ccccc12	/	-31.7%
O=C(NCc1ccco1)C(Cc1ccccc1)N1C(=O)C2C3C=CC(C3)C2C1=O (centres undefined)	>57	-7.1%
O=C(CCc1ccccc1)Nc1c(F)c(F)c(F)c(F)c1F	/	-24.1%
O=C(CSCC(=O)Nc1nccs1)Nc1ccccc1	>57	-8.9%
C=CCNC(N)=S	/	-19.2%
COc1ccc(N2C(=O)CC(Sc3ncn[nH]3)C2=O)c(OC)c1 (centres undefined)	/	12.6µM*
CCc1nccn1S(=O)(=O)c1ccc2ccc(C)cc2c1	>57	0.2%
CN1C(=O)C2(Nc3ccccc3-c3nc4ccccc4n32)c2ccccc21 (centres undefined)	>57	9.3%
O=C(CCN1CCN(Cc2ccccc2)CC1)Nc1cccc(Cl)c1	>57	?
Additional records:
SMILES	SmPrx2 inh	LT uptake inh
COc1ccc(OC)c(-c2cc(C(=O)Nc3cc(C)on3)no2)c1	>57	-6.8%
COCCCN(C(=O)c1ccco1)c1nc(-c2cc(OC)ccc2OC)cs1	>57	-18.4%
O=C(O)CCC(=O)Nc1nc(-c2ccccc2)cs1	>57	-4.5%
S=c1[nH]nc(-c2ccccc2)n1C1C=CCCC1 (centres undefined)	>57	-19.7%
COC(=O)c1cc(=O)n(Cc2cccs2)c(=NCc2cccs2)s1	>57	0.0%
CC(C)CNC(=O)NC1C(NC(=O)NCC(C)C)N(C)C(=O)N1C (centres undefined)	>57	3.8%
CCC(=O)N1CCN(c2cc3c(cc2F)c(=O)c(C(=O)O)cn3CC)CC1	>57	-15.0%
CN1CCN(C(=O)CN(c2cccc(Cl)c2)S(=O)(=O)c2ccccc2)CC1	>57	?
COc1ccc(-c2ccc(-c3noc(C)n3)c(OC)n2)cc1	>57	?
CCOC(=O)C(NC(=O)Nc1cccc(C)n1)(OCC(F)(F)F)C(F)(F)F (centres undefined)	>57	-1.8%
CCC(=O)N1CCN(c2ccccc2NC(=O)COc2cc(C)ccc2C(C)C)CC1	>57	?
CC(C)CCOc1ccc(C(=O)NCCC(=O)N2CCOCC2)cc1	>57	6.6%
Clc1cc(Cl)c(OCc2nc(-c3ccccn3)no2)cc1Cl	>57	14.3%
C/C(CCN1CCCc2nc(C)c(C)cc21)=N\O[C@@H](C)c1cn([C@H](CO)Cc2ccccc2)nn1	/	?
COc1ccccc1Cn1nnc2c(=O)[nH]c(C3CCN(C(=O)c4ccc(C)cc4)CC3)nc21	>57	-14.5%
CC(C)C(NS(=O)(=O)c1cccc2nsnc12)C(=O)N1CCc2ccccc2C1 (centres undefined)	>57	-1.3%
CCCn1c(=O)c(C(=O)NCc2ccncc2)c(O)c2ccccc21	>57	-1.4%
COc1ccc(CCNC(=O)C2(C)CCC(=O)N2Cc2ccc3c(c2)OCO3)cc1OC (centres undefined)	>57	-0.9%
c1ccc(OCCOc2ncnc3sccc23)cc1	>57	13.0%
COc1ccccc1OCc1ccc(C(=O)NC(C)(C)C)o1	>57	3.9%
Cc1[nH]nc2nc(SCC(=O)NCC3CCCO3)n(-c3ccc(Br)cc3)c(=N)c12 (centres undefined)	>57	-17.8%
COc1ccc2cc3cc(C(=O)NCCN4CCc5ccccc5C4)oc3nc2c1	>57	?
COCCn1c(=O)c(-c2cccs2)nc2cnc(Oc3ccccc3)nc21	>57	?
O=c1c2ccccc2nc(SCc2cn3ccsc3n2)n1-c1ccccc1	>57	?
CCCCOC(=O)CSc1nc(N)c(C#N)c(-c2ccc(OCC)cc2)c1C#N	>57	-7.6%

Compound profiles, from the list above.
O=C1CC2(CON=C2c2ccc(F)cc2)C(=O)N1c1ccc(F)cc1 (centres undefined) is listed with SmPrx2 inh: >57; LT uptake inh: /
COC(=O)c1cc(=O)n(Cc2cccs2)c(=NCc2cccs2)s1 is listed with SmPrx2 inh: >57; LT uptake inh: 0.0%

Further entries follow.
SMILES	SmPrx2 inh	LT uptake inh
O=C(NC1(C(F)(F)F)NC(=O)N(C2CCCC2)C1=O)C1CC1 (centres undefined)	>57	1.2%
Cn1c(CNc2ccccc2)cc(=O)n(C)c1=O	/	-3.7%
O=C(NCCc1ccccc1)C1CCN(S(=O)(=O)c2ccc(-c3nn[nH]n3)cc2)CC1	>57	8.8%
CCCCOc1ccc(/C(O)=C2/C(=O)C(=O)N(CCN(C)C)C2c2ccc(O)c(OC)c2)cc1 (centres undefined)	>57	7.5%
CCCCn1c(=NC(=O)c2cccnc2)c(C(=O)OCC)cc2c(=O)n3ccccc3nc21	>57	?
CCC(=O)N1CCc2cc(S(=O)(=O)NCCC(=O)Nc3cc(C)cc(C)c3)ccc21	>57	3.7%
CCOC(=O)N1CCc2c(sc3c2C(=O)NC(c2ccc(-c4ccc(Cl)cc4)o2)N3)C1 (centres undefined)	>57	-23.6%
COc1nc(N2CCCC2)nc(-n2cc(-c3ccccc3)nn2)n1	>57	-7.3%
CCn1c(=O)c(C(=O)NCCc2ccccc2)c(O)c2ccccc21	>57	?
CCC(NC(=O)Cn1cnc2c(=O)n(C)c(=O)n(C)c21)c1ccccc1 (centres undefined)	>57	7.2%
CC(C)CC(=O)Nc1ccccc1N1CCN(C(=O)c2ccccc2)CC1	>57	18.9%
CC(=O)Nc1ccc2c(c1)C(=O)N(C1CCCCC1)C2=O	>57	-5.5%
c1ccn2c(SCc3cn4ccsc4n3)nnc2c1	>57	9.8%
Cn1c(SCC(=O)NCc2ccc(F)cc2)nc2ccccc21	>57	?
C=CCn1c(=O)c2ccccc2n2c(SCC(=O)N3CCCc4ccccc43)nnc12	>57	-14.6%
O=S(=O)(Cl)c1ccccc1	/	-2.8%
O=S(=O)(NCc1ccccn1)c1ccc(F)cc1	>57	6.5%
COc1ccc(CNc2cc(-c3ccccc3CN(C)C)ncn2)c(OC)c1	>57	-19.5%
COc1ccc(S(=O)(=O)N2CCN(CC(=O)Nc3ccc(F)c(F)c3)CC2)cc1	>57	-11.2%
C1CN(c2nc3nonc3n3nnnc23)CCO1	>57	-5.6%
CCNc1nc(Oc2ccc(C(=O)OCC)cc2)nc(SC)n1	/	?
COc1ccc(CCNC(=O)Cn2nnc(-c3cccc(OC)c3OC)n2)cc1OC	>57	6.4%
CCCNc1nc2c(c(=O)n(C)c(=O)n2C)n1CCC(C)C	>57	4.3%
CC(=O)N1CCC(O)(c2cccc(C(F)(F)F)c2)CC1	>57	?
O=C(Nc1cccc2ccccc12)N1CCOCC1	/	1.4%

Exported as a markdown table: part of the list above
| molecule | SmPrx2 inh | LT uptake inh |
| --- | --- | --- |
| CCCCOc1ccc(/C(O)=C2/C(=O)C(=O)N(CCN(C)C)C2c2ccc(O)c(OC)c2)cc1 (centres undefined) | >57 | 7.5% |
| CCCCn1c(=NC(=O)c2cccnc2)c(C(=O)OCC)cc2c(=O)n3ccccc3nc21 | >57 | ? |

(continued)
SMILES	SmPrx2 inh	LT uptake inh
CC1=C(C(=O)Nc2cc(C)ccn2)C(c2ccc(C)cc2)C2=C(CCCC2=O)N1 (centres undefined)	>57	22.9%
COc1ccc(NC(=O)N2CCCC3(CCN(C(C)=O)CC3)C2)cc1	>57	11.0%
Cc1cc(Nc2nnnn2-c2ccccc2)n(-c2ccc(Cl)cc2)n1	>57	?
CNc1ccnc(-c2c(C)noc2C)n1	>57	1.0%
O=C(CCCn1c(=O)[nH]c2ccsc2c1=O)NCc1cccs1	>57	-3.9%
Cc1ccc(S(=O)(=O)N2CCN(C(=O)COC(=O)c3cc(C)oc3C)CC2)cc1	>57	-11.9%
COC(=O)N1CCC[C@@]2(CCN(C(=O)Nc3cccc(F)c3)C2)C1	>57	18.9%
O=C1CC(c2ccco2)CC(O)=C1C=NCCO (centres undefined)	>57	0.4%
O=[N+]([O-])c1cccc(Cl)c1	/	-1.9%
CCN1C(=O)/C(=C\N2CCN(c3ccccc3)CC2)SC1=S	>57	?
COc1ccccc1NC(=O)N1CCN(c2cc(-c3ccccc3)nc3ncnn23)CC1	>57	12.8%
COc1ccc(CNC(=O)c2cc3c(C)nc4ccccc4c3o2)c(OC)c1	>57	?
Cc1noc(NS(=O)(=O)c2cccc3c(N(C)C)cccc23)c1C	>57	?
c1cncc(CNc2c3c(nc4nnnn24)CCCC3)c1	>57	?
CCOC(=O)c1nnn(-c2nonc2N)c1CSc1ccc(C)cc1	>57	-14.6%
Cc1nc2ccccc2c(=O)n1/N=C/c1ccccn1	>57	-4.9%
O=C(c1ccco1)N1C(=O)c2cccc3c(S(=O)(=O)N4CCCC4)ccc1c23	>57	?
O=C(Nc1nc2c(s1)CCc1ccccc1-2)c1cccs1	>57	?
Cn1c(=O)c2c(nc(Br)n2Cc2ccccc2Cl)n(C)c1=O	>57	-6.6%
COc1ccc(S(=O)(=O)NC2CCCCC2)c(C)c1C	>57	-9.5%
COc1ccc(N2C(C)=CS/C2=C(/C#N)c2nnc(N3CCOCC3)n2-c2ccccc2)cc1	>57	?
O=C(NCCc1c[nH]c2ccccc12)c1c(Cl)nc2sccn12	>57	9.1%
CCOC(=O)C1C(=O)CC(O)(c2ccccc2)CC1c1ccccc1 (centres undefined)	>57	-3.8%
COc1ccccc1CN1CCCC2(CCN(C(=O)c3c(C)noc3C)CC2)C1	>57	-21.8%
COCC(=O)N1CCC2(CC1)CN(C(c1ccccc1)c1ccccc1)C2	>57	?

Looked up above.
Cc1noc(NS(=O)(=O)c2cccc3c(N(C)C)cccc23)c1C @ SmPrx2 inh = >57
CCN1C(=O)/C(=C\N2CCN(c3ccccc3)CC2)SC1=S @ SmPrx2 inh = >57
O=C1CC(c2ccco2)CC(O)=C1C=NCCO (centres undefined) @ SmPrx2 inh = >57
O=C(NCCc1c[nH]c2ccccc12)c1c(Cl)nc2sccn12 @ SmPrx2 inh = >57
CN1C(=O)C2(Nc3ccccc3-c3nc4ccccc4n32)c2ccccc21 (centres undefined) @ LT uptake inh = 9.3%
Cc1[nH]nc2nc(SCC(=O)NCC3CCCO3)n(-c3ccc(Br)cc3)c(=N)c12 (centres undefined) @ SmPrx2 inh = >57

Additional structures
SMILES	SmPrx2 inh	LT uptake inh
Cc1cc(C)cc(N(CC(=O)NCc2ccc3c(c2)OCO3)C(=O)CCC(=O)Nc2ccccn2)c1	>57	-5.4%
Nc1ccc(N)c(Cl)c1	/	13.2%
Cc1ccc(Nc2nc(Oc3ccc(=O)[nH]n3)nc(N(C)C)n2)cc1	>57	9.0%
CCCCN=C(C)C1=C(O)CSC1=O	/	15.5%
O=C(O)C1C2CCCCC2=C2CCCCC2C1C(=O)O (centres undefined)	/	0.0%
O=C(CSCCc1ccccn1)Nc1ccccn1	>57	16.5%
Cc1cc(C)c2c(C)nn(C3CCCCC3)c2n1	>57	5.0%
CC1=C(C)CC2C(=O)N(c3cccc4ccccc34)C(=O)C2C1 (centres undefined)	>57	?
Cc1ccc(CN2CCNC(=O)C2CC(=O)O)o1 (centres undefined)	>57	-1.7%
CCOC(=O)Cc1csc(NC(=O)CSc2nnc(-c3ccncc3)n2Cc2ccco2)n1	>57	18.7%
C[N+](C)(CCCOc1ccccc1)c1ccccc1	>57	-8.3%[3.58 µM]
Nn1cc(-c2ccccc2)nc1SCC(=O)N1CCN(S(=O)(=O)c2ccccc2)CC1	>57	?
COC(=O)C1=C(C)Nc2ccc(C)cc2S1	>57	-17.1%
Cc1nc2sc(C(c3ccco3)N3CCN(C(c4ccccc4)c4ccccc4)CC3)c(O)n2n1 (centres undefined)	>57	6.2%
CCCn1c(N)c(C(=O)CSc2nnc(-c3ccco3)n2Cc2ccccc2)c(=O)[nH]c1=O	>57	-9.8%
O=C(Nc1ccc2c(c1)OCCO2)c1ccc2nccnc2c1	>57	?
CCN(CC)CC[n+]1ccc2c(C)c3[nH]c4ccccc4c3c(C)c2c1	>57	3.98µM*
Cn1c(=O)[nH]c(=O)c2c1nc(CN1CCN(c3cccc(Cl)c3)CC1)n2CCCc1ccccc1	>57	14.3%
Cn1c(Cc2ccccc2)nnc1SCC(=O)N1CCOCC1	>57	-19.9%
CCOc1cc(C)c(Cl)cc1S(=O)(=O)NCC1CCCO1 (centres undefined)	>57	3.1%

Assay outcomes from PubChem.
